Bioassay records deposited in PubChem BioAssay by Broad Institute.
Ecoli rRNA inh: inhibitors of bacterial rRNA selective over humanized ribosomes. E. coli WT GFP vs humanized-ribosome RFP mutants, fluorescence, 24 h; stronger effect = lower value; DMSO median 0, no signal -100. GFP signal change (wild-type ribosome), % (test concentration not listed). 1.6% of 350,000 active;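 active = significant combined selectivity score with lowered wild-type GFP, culture density cut under 30%, mutant RFP and density less affected; inactive = any of these conditions unmet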; also: one replicate is shown; some compounds called inactive have numbers as strong as hits
MLL AF4-AF9 inh: MLL-AF4/AF9 protein interaction inhibition | P42568 | AlphaScreen, biotin-AF4 peptide binding to FLAG-AF9 | inhibition, % at 10 µM | 0.47% of 350,000 active;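 active = every replicate reaching a set inhibition limit, whatever the replicate mean, cut at about 25% in these data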;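 also: 0% = plate neutral control median and 100% = total signal loss; the record names both 10 and 1 µM as test concentration; the first replicate is given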
Target sequence (P42568 whole entry, looked up): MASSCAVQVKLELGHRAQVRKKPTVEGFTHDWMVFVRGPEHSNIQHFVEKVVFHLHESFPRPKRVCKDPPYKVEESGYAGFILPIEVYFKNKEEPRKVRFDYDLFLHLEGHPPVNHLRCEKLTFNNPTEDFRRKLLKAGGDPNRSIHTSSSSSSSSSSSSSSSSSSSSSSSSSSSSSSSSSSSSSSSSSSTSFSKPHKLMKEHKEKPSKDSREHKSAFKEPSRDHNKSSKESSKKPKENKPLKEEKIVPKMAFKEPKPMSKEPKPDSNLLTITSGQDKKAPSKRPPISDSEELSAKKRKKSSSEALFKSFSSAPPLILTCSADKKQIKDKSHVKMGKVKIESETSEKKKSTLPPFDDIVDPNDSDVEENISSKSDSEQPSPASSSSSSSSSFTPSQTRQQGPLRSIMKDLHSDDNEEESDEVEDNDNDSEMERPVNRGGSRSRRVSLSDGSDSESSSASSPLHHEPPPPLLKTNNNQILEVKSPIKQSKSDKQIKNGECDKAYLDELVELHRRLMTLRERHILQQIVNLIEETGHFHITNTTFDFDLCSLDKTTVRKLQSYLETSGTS
Ecoli rRNA inh OD600: second read-out of Ecoli rRNA inh, no call of its own (marks repeat the call); OD600 change, %; measured here: OD600 growth;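 optical density of the mix in the first replicate; 0 = DMSO median and -100 = no signal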
Ecoli rRNA inh RFP: recorded beside Ecoli rRNA inh, whose call it bears; RFP signal change, %; measured here: RFP humanized mutant strains;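 first replicate; 0 = DMSO median and -100 = no signal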
The depositor's hits bear a star; & = joins results of further samples. A portion of the library; rates above refer to the full screens.

SMILES | Ecoli rRNA inh | Ecoli rRNA inh OD600 | Ecoli rRNA inh RFP | MLL AF4-AF9 inh
CCCN(C)C[C@H]1OCCCC[C@@H](C)Oc2ccc(NC(=O)Nc3ccccc3)cc2C(=O)N([C@@H](C)CO)C[C@H]1C | 4 | 3 | 3.7 | -3.1
CCNC(=O)C[C@H]1CC[C@@H]2[C@H](COc3ccc(NC(=O)Nc4cccc(F)c4)cc3C(=O)N2C)O1 | -2 | 3 | 4.3 | 1.6
CNC[C@H]1Oc2c(NS(=O)(=O)c3c(C)noc3C)cccc2C(=O)N([C@@H](C)CO)C[C@H]1C | 2 | 7 | -0.1 | -16
O=C(NC1CCCCC1)C1c2ccccc2OCC(=O)N1Cc1ccco1 (configuration not stated) | 0 | -1 | -0.9 | 1.7
CNC[C@H]1Oc2ccc(NC(=O)Nc3ccc(F)cc3)cc2C(=O)N([C@@H](C)CO)C[C@@H]1C | 5 | 11 | 0.0 | 0.3
C[C@@H]1CCCCO[C@H](CN(C)C)[C@H](C)CN([C@H](C)CO)C(=O)c2cc(NC(=O)C3CCCCC3)ccc2O1 | 0 | 6 | -0.7 | -2.6
C[C@@H]1CN([C@@H](C)CO)C(=O)Cc2cc(NS(=O)(=O)c3ccc(Cl)cc3)ccc2O[C@H]1CN(C)Cc1ccc(Oc2ccccc2)cc1 | 2 | 2 | 4.2 | 3.2
O=C(c1cccc(F)c1)N1CC(=O)N2[C@H](CO)[C@H](c3ccc(C4=CCCCC4)cc3)[C@@H]2C1 | -5 | -35 | -2.4 | 2.0
C[C@@H]1CCCCO[C@H](CN(C)Cc2ccc(Cl)c(Cl)c2)[C@H](C)CN([C@@H](C)CO)C(=O)c2cc(NC(=O)NC3CCCCC3)ccc2O1 | 2 | 4 | -0.1 | 0.4
COCCNC(=O)C[C@@H]1C[C@H]2c3cc(NC(=O)NC4CCCCC4)ccc3O[C@H]2[C@@H](CO)O1 | 2 | 4 | -1.9 | -2.7
COc1ccccc1CN1[C@H](CO)[C@@H]2c3ccccc3N(C(=O)C3CCCC3)C[C@@H]21 | -8 | -30 | 1.9 | 2.4
C[C@@H]1CN([C@H](C)CO)C(=O)Cc2cc(NS(=O)(=O)c3ccc(F)cc3)ccc2O[C@@H]1CN(C)CC1CCCCC1 | 0 | -5 | -2.8 | -0.8
CC(=O)Nc1ccc2c(c1)C(=O)N(C)[C@H]1CC[C@@H](CC(=O)NCCCN3CCOCC3)O[C@H]1CO2 | 2 | 11 | 0.8 | -1.9
COc1ccccc1CN(C)C[C@H]1OCc2cnnn2CCCC(=O)N([C@H](C)CO)C[C@H]1C | -2 | -1 | -0.3 | -0.7
C[C@H]1CCCCO[C@@H](CN(C)Cc2ccc3c(c2)OCO3)[C@@H](C)CN([C@@H](C)CO)C(=O)c2cc(NS(=O)(=O)c3ccccc3)ccc2O1 | -2 | -3 | -2.4 | 7.7
CC1=C(C(=O)N2CCCCCC2)CC(CC(=O)NCc2ccco2)C(=O)N1Cc1ccccc1 (configuration not stated) | 7 | 7 | 0.3 | -2.0
O=C(C[C@H]1C[C@H](C(=O)N2CCCCC2)[C@@]2(CCc3ccccc3)c3[nH]c4cc(-c5ccco5)ccc4c3CCN2C1=O)NCc1cccc(C(F)(F)F)c1 | 13 | 23 | 29 | -0.5
O=C(N[C@H]1CC[C@H](CCn2cc(-c3cccnc3)nn2)O[C@H]1CO)c1ccccc1F | 0 | 2 | -4.2 | 4.5
Cn1c(=O)c2cc(NC(=O)Cc3ccccc3F)ccc2n1C/C=C/c1ccccc1 | 0 | -9 | 3.7 | 3.8
C[C@@H]1CN([C@H](C)CO)C(=O)CCCn2nncc2CO[C@@H]1CN(C)C(=O)Nc1ccccc1C(F)(F)F | 2 | 1 | -0.3 | -1.1
C[C@H]1CN([C@@H](C)CO)C(=O)Cc2cc(NS(=O)(=O)c3ccc(Cl)cc3)ccc2O[C@H]1CN(C)CC1CC1 | 2 | 5 | 0.6 | -1.6
C[C@H](CO)N1C[C@H](C)[C@H](CN(C)S(=O)(=O)c2cn(C)cn2)Oc2ccc(NS(=O)(=O)c3cccs3)cc2C1=O | -1 | -4 | -0.5 | 1.1
CCCN1C[C@H](C)[C@@H](OC)CN(C)C(=O)c2ccc(NC(=O)C3CCC3)cc2OC[C@@H]1C | 0 | 2 | -1.6 | -0.5
Cc1noc(C)c1S(=O)(=O)Nc1ccc2c(c1)C(=O)N([C@H](C)CO)C[C@H](C)[C@H](CN(C)C(=O)Nc1ccccc1)O2 | 0 | 2 | -0.5 | -1.7
C[C@@H]1CN([C@H](C)CO)C(=O)c2cc(NC(=O)Nc3ccccc3)ccc2O[C@@H]1CN(C)Cc1ccncc1 | -2 | 1 | -4.2 | -0.2
C[C@@H]1CCCCO[C@H](CN(C)C(=O)Nc2ccc(C(F)(F)F)cc2)[C@@H](C)CN([C@H](C)CO)C(=O)c2cc(NC(=O)Nc3ccc4c(c3)OCO4)ccc2O1 | 2&5 | -1&5 | 5.2&-2.9 | -0.1&-0.6
COc1ccc(CNC(=O)C[C@H]2C=C[C@H](NC(=O)c3ccc4c(c3)OCO4)[C@@H](CO)O2)cc1 | 2 | 3 | 0.0 | -3.6
C[C@@H]1CCCCO[C@H](CN(C)C(=O)c2ccccc2)[C@H](C)CN([C@@H](C)CO)C(=O)c2cc(NC(=O)c3ccccc3)ccc2O1 | -52 | -67 | -13 | 4.7
C[C@H](CO)N1C[C@H](C)[C@H](CN(C)C(=O)C2CCCCC2)Oc2cc(C3=CCCCC3)ccc2S1(=O)=O | -2 | -8 | 5.0 | 6.4
CCCc1c(-c2ccc(F)cc2F)ncn1Cc1cccc(-c2ccccc2)c1 | -42 | -66 | 2.9 | 2.2
O=c1[nH][nH]c2c1C(c1ccc(F)cc1)OC(CCc1ccccc1)C2 (configuration not stated) | 2 | -2 | 0.4 | -2.0
C[C@H]1CN([C@@H](C)CO)C(=O)c2cccc(NS(=O)(=O)c3ccc(Cl)cc3)c2O[C@H]1CN(C)C | 5 | 4 | 0.9 | -1.3
CCC(=O)Nc1ccc2c(c1)OC[C@H](C)N(C(=O)c1ccccc1F)C[C@@H](C)[C@@H](OC)CN(C)C2=O | 0 | 2 | 0.4 | 0.3
COc1ccc(S(=O)(=O)Nc2cccc3c2O[C@@H](CN(C)C)[C@@H](C)CN([C@H](C)CO)C3=O)cc1 | 2 | 4 | 3.7 | 1.2
COc1ccc(CNC(=O)C[C@H]2CC[C@@H](NC(=O)c3cccc(F)c3)[C@H](CO)O2)cc1 | 1 | 2 | -0.3 | 11
O=C(Nc1ccc(Cl)c(Cl)c1)N[C@@H]1CC[C@@H](CCn2cc(C3CC3)nn2)O[C@@H]1CO | -9 | -16 | 5.6 | 0.4
C[C@H](CO)N1C[C@H](C)[C@H](CN(C)Cc2ccc(-c3ccccc3)cc2)Oc2ccc(NC(=O)CCC(F)(F)F)cc2CC1=O | -2 | -10 | 1.6 | 2.6
O=C1c2ccccc2C(c2nc3ccccc3[nH]2)N1Cc1ccco1 (configuration not stated) | 8 | 10 | 1.9 | -2.0
C/C=C/c1ccc(C2[C@H]3CNC[C@@H]2N3Cc2nccs2)cc1 (some centres not stated) | 5&6 | 14&12 | -0.9&0.3 | 2.6&4.3
CN1C(=O)[C@@]2(O[C@H]3C=CC=CN3C3=C2C(=O)CCC3)c2cccc(Br)c21 | 4 | 15 | 0.0 | -2.3
COc1ccccc1CNC(=O)C[C@@H]1CC[C@@H]2[C@H](COC[C@H](O)CN2Cc2cccc(-c3ccncc3)c2)O1 | -4 | -17 | 2.4 | 0.7
CCCNC(=O)N1[C@H](CO)[C@@H](c2ccc(-c3ccccc3F)cc2)[C@@H]1C#N | -28 | -70 | -0.9 | 4.4
CCCNC(=O)N1C[C@H](O)COC[C@@H]2O[C@H](CC(=O)N3CCN(C)CC3)CC[C@H]21 | -5 | 5 | -8.8 | -3.4
CN(C)C(=O)C[C@@H]1C=C[C@@H](NC(=O)C2CCOCC2)[C@H](CO)O1 | 1 | -1 | -0.1 | -3.2
CCN1[C@@H]2Cn3c(ccc(-c4ccccc4F)c3=O)[C@H]1[C@@H](C(=O)N1CCOCC1)[C@@H]2CO | 3 | 7 | -0.7 | 0.7
COc1ccc(CN(C)C[C@@H]2OCCCC[C@@H](C)Oc3ccc(N(C)C)cc3C(=O)N([C@H](C)CO)C[C@H]2C)cc1 | 2 | 4 | -2.7 | 13
CCCNC(=O)C[C@H]1CC[C@H]2[C@@H](COC[C@H](O)CN2C(=O)c2cc(Cl)cc(Cl)c2)O1 | 0 | 10 | -3.2 | -1.6
CCCC#Cc1ccc2c(c1)O[C@H](CN(C)C(=O)CN(C)C)[C@H](C)CN([C@H](C)CO)S2(=O)=O | -3 | -4 | 1.4 | 3.9
COC(=O)[C@]1(Cc2ccccc2)NC=C(C(=O)c2ccc(F)cc2)[C@@H]1c1ccccc1 | -17 | -36 | -6.6 | 2.5
COc1cccc(NC(=O)N2CC(=O)N3[C@@H](CO)[C@@H](c4ccc(Br)cc4)[C@@H]3C2)c1 | 4 | 14 | 0.0 | -2.5
CCc1nc2c(OCc3ccc(F)c(F)c3)cccn2c1N(C)C(=O)c1ccncc1 | -4 | 2 | -1.7 | 1.1
O=C(c1ccc(F)cc1)N1CC(=O)N2[C@H](CO)[C@@H](c3ccc(C#CCC4CCCC4)cc3)[C@H]2C1 | -8 | -4 | 4.2 | 2.2
C[C@H]1CN([C@@H](C)CO)C(=O)c2cc(NC(=O)Cc3cn(C)c4ccccc34)ccc2O[C@@H]1CN(C)C(=O)Nc1ccc(C(F)(F)F)cc1 | -4 | 1 | 0.5 | 1.2
CCCN1C[C@@H](C)[C@@H](OC)CN(C)C(=O)c2cc(NC(=O)NC3CCCC3)ccc2OC[C@H]1C | 3 | -2 | 0.2 | -2.5
COc1ccccc1Cc1c(-c2ccc(C)cc2)nc2ccc(C)cn12 | 9 | -13 | -11 | 2.8
O=C(Cc1ccncc1)Nc1ccc2c(c1)[C@H]1C[C@@H](CC(=O)N3CCc4ccccc4C3)O[C@H](CO)[C@H]1O2 | 1 | 5 | 0.7 | 8.8
C[C@@H]1CN([C@H](C)CO)C(=O)c2cccc(NC(=O)Nc3ccccc3)c2O[C@@H]1CN(C)C(=O)NC1CCCCC1 | -2 | 0 | 0.8 | -2.4
CO[C@@H]1CN(C)C(=O)c2cc(NC(=O)c3nc4ccccc4s3)ccc2OC[C@@H](C)N(Cc2cccnc2)C[C@@H]1C | -7 | -15 | 19 | 5.9
CCCOc1ccc(F)cc1-c1cc(C(=O)Nc2ccc(OC)cc2C)[nH]n1 | 8 | -3 | 6.7 | -2.6
O=C(c1ccccn1)N1C[C@@H]2[C@H](c3ccccc31)[C@@H](CO)N2C(=O)Nc1ccccc1 | 1 | 2 | 0.1 | -2.0
Remaining list, next part
SMILES | Ecoli rRNA inh | Ecoli rRNA inh OD600 | Ecoli rRNA inh RFP | MLL AF4-AF9 inh
COc1ccc(NC(=O)Nc2cccc3c2O[C@@H](CN(C)S(=O)(=O)c2cccs2)[C@H](C)CN([C@H](C)CO)C3=O)cc1 | -4 | -12 | -1.3 | -1.6
C/C=C/c1ccc2c(c1)O[C@@H](CN(C)C(=O)c1ccc(F)cc1)[C@@H](C)CN([C@@H](C)CO)S2(=O)=O | -8 | -7 | 5.6 | 0.8
C[C@H]1CN(S(=O)C(C)(C)C)[C@@H](CCO)/C1=C\c1ccccc1 (some centres not stated) | 13 | 11 | 2.8 | -0.1
COc1ccccc1C(=O)NCC[N+](C)(C)C | 16 | 17 | 3.4 | -5.4
C[C@H](NC(=O)[C@H]1[C@H](CO)[C@H]2Cn3c(cccc3=O)[C@H]2N1CC1CC1)c1ccccc1 | 3 | 6 | -4.5 | -3.3
C/C=C/c1ccc([C@@H]2[C@@H](CO)N3C(=O)CN(C(=O)Cc4cccnc4)C[C@H]23)cc1 | 1 | 6 | 2.4 | 3.8
N#C[C@@H]1[C@H](c2ccc(C3=CCCC3)cc2)[C@@H](CO)N1C(=O)Cc1ccncc1 | 1 | 7 | -2.9 | -0.4

Exported with values under each structure: seven of the compounds above
Order of values: Ecoli rRNA inh	Ecoli rRNA inh OD600	Ecoli rRNA inh RFP	MLL AF4-AF9 inh
CO[C@@H]1CN(C)C(=O)c2cc(NC(=O)c3nc4ccccc4s3)ccc2OC[C@@H](C)N(Cc2cccnc2)C[C@@H]1C
  -7	-15	19	5.9
Cn1c(=O)c2cc(NC(=O)Cc3ccccc3F)ccc2n1C/C=C/c1ccccc1
  0	-9	3.7	3.8
C[C@@H]1CCCCO[C@H](CN(C)C(=O)c2ccccc2)[C@H](C)CN([C@@H](C)CO)C(=O)c2cc(NC(=O)c3ccccc3)ccc2O1
  -52	-67	-13	4.7
O=C(c1ccc(F)cc1)N1CC(=O)N2[C@H](CO)[C@@H](c3ccc(C#CCC4CCCC4)cc3)[C@H]2C1
  -8	-4	4.2	2.2
C[C@H](CO)N1C[C@H](C)[C@H](CN(C)C(=O)C2CCCCC2)Oc2cc(C3=CCCCC3)ccc2S1(=O)=O
  -2	-8	5.0	6.4
CN1C(=O)[C@@]2(O[C@H]3C=CC=CN3C3=C2C(=O)CCC3)c2cccc(Br)c21
  4	15	0.0	-2.3
COc1ccc(CN(C)C[C@@H]2OCCCC[C@@H](C)Oc3ccc(N(C)C)cc3C(=O)N([C@H](C)CO)C[C@H]2C)cc1
  2	4	-2.7	13
